GIV Gai3 FP: blocks GIV peptide binding to rat Galpha-i3; P08753; Galpha-i3/FITC-GIV peptide fluorescence polarization, 90 min; active compounds read low; scaled: aluminum fluoride 0%, vehicle 100%; percent of control (FP), % (concentration not given with the values); actives 0.42% (n = 210,000); AID 1224905;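 active = replicate mean at 85% of control or lower, very high polarization wells dropped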;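 also: wells of about 15 µL received 100 nL stock; the first replicate is given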
Target sequence (P08753 whole entry, looked up): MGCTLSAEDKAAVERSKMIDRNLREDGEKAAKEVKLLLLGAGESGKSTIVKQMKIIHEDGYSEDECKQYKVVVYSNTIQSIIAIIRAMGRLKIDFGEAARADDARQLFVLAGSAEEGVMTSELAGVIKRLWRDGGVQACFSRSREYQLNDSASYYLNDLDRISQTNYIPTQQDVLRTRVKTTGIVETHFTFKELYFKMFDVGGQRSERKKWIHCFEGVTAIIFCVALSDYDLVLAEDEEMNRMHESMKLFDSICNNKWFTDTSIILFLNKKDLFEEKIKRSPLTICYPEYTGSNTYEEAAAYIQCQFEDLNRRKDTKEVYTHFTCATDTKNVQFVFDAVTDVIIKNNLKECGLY
HCMV NEC inh: cytomegalovirus nuclear egress complex inhibition | inhibition, % (test concentration not listed) | HTRF UL50-UL53 interaction, normalized percent inhibition | actives 0.15% (n = 190,000);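 active = both replicates at 50% or more, plus weaker picks with an unusually low signal ratio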;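 also: stock transfer was 100 nL into about 20 µL; 0% = negative control wells and 100% = wells with untagged competitor protein; inactives centre near -12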
Sa growth 42C: S. aureus growth inhibition | actives 0.53% (n = 170,000) | relative growth, % (concentration not given with the values) | AID 720641 | S. aureus RN4220 growth, OD600, 20 h, 42 °C; active compounds read low;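 active = growth at 42 °C up to 50% and 20 or more points under that at 30 °C, or under 10% at both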;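 also: 300 nL library stock went into each well; scaled to the means of positive and negative controls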
Sa growth 42C second temp: also measured in Sa growth 42C; calls as there; relative growth, %; measured here: growth at 30 °C;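 optical density after 20 h as mean of two plates; 100% = untreated growth and lower means inhibition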
* hit, by the source's call; . = no result given; & = joins results of further samples.

SMILES	GIV Gai3 FP	HCMV NEC inh	Sa growth 42C	Sa growth 42C second temp
CCOC(=O)N1CCN(C(=O)Cn2cnc3c(cnn3-c3ccc(C)cc3C)c2=O)CC1	104	-32	97	84
O=C(Cn1nc(-c2nccc3ccccc23)oc1=O)N1CCCc2ccccc21	101	-6	127	87
O=C1CCC(c2cccs2)=NN1CO	106	-23	103	95
Cc1cccc(S(=O)(=O)NCc2ccco2)c1	101	-14	87	99
CCN1CCN(c2oc(/C=C/c3ccc(OC)c(OC)c3)nc2C#N)CC1	99	-82	107	83
O=C(CSc1cn(Cc2ccccc2)c2ccccc12)Nc1nccs1	99	-20	90	82
CCc1ccccc1NC(=O)CN1CCCN(Cc2cc(C)ccc2C)S1(=O)=O	103	.	87	94
CC(=O)N[C@@H](Cc1c[nH]c2ccccc12)C(=O)N1CCC(C)CC1	.	-3	104	86
CC1CC(=O)N(N(C)C)C(C#N)(C#N)C1(C#N)C#N (stereo unspecified)	.	-26	86	68
CC(=O)Oc1cccnc1I	104	-24	.	.
CCN(Cc1ccccc1)Cc1cc(Cl)ccc1O	105	13	107	96
COc1ccc(C(=O)Nc2nnc(S(=O)(=O)N3CCN(c4ccc(F)cc4)CC3)s2)cc1	104	-13	96	90
O=C(NCCc1ccccc1)C(=O)NCC(c1ccco1)S(=O)(=O)c1ccccc1 (stereo unspecified)	98	.	108	78
Cc1nc(C2=C(O)CN(CCCN3CCCC3=O)C2=N)sc1C	101	-15	.	.
CC(C)c1ccc(NC(=O)C(c2ccc3c(c2)OCO3)N2CCC3(CC2)OCCO3)cc1 (stereo unspecified)	105	-23	77	85
Cc1cccc(-n2c(=O)c3c4c(sc3n3c(=S)[nH]nc23)CCC4)c1	101	-2	104	97
COc1cccc(N2CCN(C(=O)c3cc4c(=O)n(Cc5cccnc5)ccc4nc3C)CC2)c1	101	.	80	90
Cc1ccc(-c2cc(=O)c3ccc4ccccc4c3o2)cc1	107	.	122	81
CCN(C(=O)c1ccc(OC(C)=O)cc1)c1ccccc1C	.	-7	87	86
O=C(c1cnc2cc(-c3ccc(Cl)cc3)nn2c1)c1ccccc1O	100	-23	.	.

Profiles, quoted from the list. Order of screens: GIV Gai3 FP, HCMV NEC inh, Sa growth 42C, Sa growth 42C second temp
CCN(Cc1ccccc1)Cc1cc(Cl)ccc1O is listed as 105, 13, 107, 96
CC(C)c1ccc(NC(=O)C(c2ccc3c(c2)OCO3)N2CCC3(CC2)OCCO3)cc1 (stereo unspecified) is listed as 105, -23, 77, 85
O=C(NCCc1ccccc1)C(=O)NCC(c1ccco1)S(=O)(=O)c1ccccc1 (stereo unspecified) is listed as 98, ., 108, 78
Cc1nc(C2=C(O)CN(CCCN3CCCC3=O)C2=N)sc1C is listed as 101, -15, ., .
COc1ccc(C(=O)Nc2nnc(S(=O)(=O)N3CCN(c4ccc(F)cc4)CC3)s2)cc1 is listed as 104, -13, 96, 90

Copied from the listing, 4 compounds:
SMILES	GIV Gai3 FP	HCMV NEC inh	Sa growth 42C	Sa growth 42C second temp
COc1cccc(N2CCN(C(=O)c3cc4c(=O)n(Cc5cccnc5)ccc4nc3C)CC2)c1	101	.	80	90
Cc1ccc(-c2cc(=O)c3ccc4ccccc4c3o2)cc1	107	.	122	81
CCN(C(=O)c1ccc(OC(C)=O)cc1)c1ccccc1C	.	-7	87	86
O=C(c1cnc2cc(-c3ccc(Cl)cc3)nn2c1)c1ccccc1O	100	-23	.	.

The listing continues.
SMILES	GIV Gai3 FP	HCMV NEC inh	Sa growth 42C	Sa growth 42C second temp
COc1ccc(-n2c(C)cc(CN)c2C)cc1	108	10	.	.
O=C(CN1C(=O)CC(c2ccccc2)S(=O)(=O)c2ccccc21)Nc1ccccc1C(F)(F)F (stereo unspecified)	105	.	88	87
N#Cc1ccccc1NC(=O)C(=O)NCC(c1ccc2c(c1)OCO2)N1CCOCC1 (stereo unspecified)	98	.	111	83
Cc1ccc(OCC(=O)Nc2cc3c(cc2SC(C)C)n(C)c(=O)n3C)cc1	106	-36	.	.
Cc1coc2cc3oc(=O)c(CCC(=O)NCc4ccccc4)c(C)c3cc12	103	-15	94	81
CCc1ccc(C=Nc2ccc(O)cc2)s1	97	-14	90	91
CCc1cccc(-n2c(=O)c3cccnc3n2CC(=O)Nc2ccccc2OC)c1	106	-34	96	83
CC1(C)CC(=O)C2=C(C1)OC(N)=C(C#N)C2c1cn(Cc2cccc(F)c2)c2ccccc12 (stereo unspecified)	104	6	135	96
CCC1CN(C(=O)Nc2cc(Cl)c(OC)cc2OC)c2ccccc2O1 (stereo unspecified)	104	-10	111	86
O=C(NCCCN1CCCCC1)c1oc(=O)c2ccccc2c1-c1ccccc1	96	1	106	96
Cn1/c(=N/NC(=O)c2ccccc2)sc2ccccc21	.	1	84	83
CC(C)(CNC(=O)c1cc2ccccc2o1)N1CCOCC1	.	-29	97	94
S=C(NCc1ccco1)NCC1CC(c2ccccc2)=NO1 (stereo unspecified)	106	-20	100	81
O=C(C1CCCN(S(=O)(=O)c2cccc3nsnc23)C1)N1CCN(c2ccccc2Cl)CC1 (stereo unspecified)	112	-44	95	99
Nc1nccnc1C(=O)Oc1ccccc1	107	-34	101	79
CCc1ccc(S(=O)(=O)c2cn(CC)c3cc(N4CCCCC4)c(F)cc3c2=O)cc1	105	.	105	102
CC1CCN(c2ccc(-c3noc(CN4C(=O)COc5ccccc54)n3)cc2)CC1	105	-26	.	.
CCCN(CCC)C(=O)CSc1c2c(nc3ccc(Cl)cc13)CCCC2	102	-34	114	86
CC1(C)O[C@H]2[C@@H](O1)[C@@H](C(=O)Nc1cc(F)ccc1F)O[C@@H]1OC(C)(C)O[C@@H]12	105	-9	108	90
Cc1ccc(S(=O)(=O)NC(CC(C)C)C(=O)N2CCC(C)CC2)cc1 (stereo unspecified)	.	4	107	93
CCN(c1ccccc1C)S(=O)(=O)c1nnc(NC(=O)c2ccc(OC)c(OC)c2)s1	102	-8	96	84
CCOc1ccc(N(CC)S(=O)(=O)N2CCCC(C(=O)NCc3ccc(Cl)cc3)C2)cc1 (stereo unspecified)	113	.	89	52
Cn1c(SCc2ccccc2)nnc1C1CCN(C(=O)Nc2ccccc2)CC1	97	-11	109	85
Cc1cc(C)c2oc(C(=O)Nc3sc4c(c3C(=O)NCc3ccco3)CCC4)cc(=O)c2c1	98	-24	101	83
CSc1ccc(CN(C)C(=O)Cn2[nH]c(=O)c3ccccc3c2=O)cc1	.	-20	114	96
Cc1nn(-c2ccc(F)cc2)c(-n2cccc2)c1C(=O)N1CCCCC1	99	8	95	109
O=C(Nc1ccc(N2CCC(N3CCCCC3)CC2)cc1C(=O)O)c1ccccc1Cl	97	-22	.	.
CCOC(=O)C1CCC(CN(Cc2c(Cl)cccc2Cl)S(=O)(=O)c2ccc(Cl)cc2)CC1 (stereo unspecified)	102	.	97	86
CN(CCc1ccccn1)C(=O)c1cccc(C(F)(F)F)c1	.	-3	102	89
Cc1ccc2[nH]c(=O)c(CN(C3CCCCC3)S(=O)(=O)c3ccccc3)cc2c1	101	.	94	88
CCOC(=O)c1c(NC(=O)CCCc2nc(-c3ccc(Cl)cc3)no2)sc(C)c1C	104	2	.	.
CC(Oc1ccccc1)C(=O)Nc1ccccc1C(=O)OCc1cc(=O)n2nc(C(C)C)sc2n1 (stereo unspecified)	102	.	73	91
O=C(COC(=O)CC1Sc2ccccc2NC1=O)NC1CC1 (stereo unspecified)	.	-5	91	91
CSc1ccc(S(=O)(=O)N2CCCCC2)cc1	102	5	102	106
COc1ccc2c(c1)c1c3n2CCNC3CCC1 (stereo unspecified)	104	.	86	85
Cc1nc2sccn2c(=O)c1S(=O)(=O)NCCC(C)C	101&101	-14	79	87
O=C(CN1C(=O)CCc2cc(S(=O)(=O)N3CCOCC3)ccc21)NC1CCCc2ccccc21 (stereo unspecified)	114	-9	.	.
CCCCN1C(C)=NC(C(F)(F)F)(C(F)(F)F)C2=C1CC(C)(C)CC2=O	103	.	110	86
O=C(/C=C/c1ccccc1)N1CCCCC1	98	-21	105	94
CC1(C)CC(=O)C2=C(C1)OC(N)=C(C#N)C2C#Cc1ccccc1 (stereo unspecified)	105	13	67	90
COC(=O)c1cc(NC(=O)c2ccc3c(c2)OCCO3)cc(C(=O)OC)c1	104	-19	.	.
Cc1cc(C(F)F)n2nc(C(=O)Nc3ccc(C(C)C)cc3)nc2n1	98	-4	89	86
COc1ccccc1C(=O)Nc1nnc(SCc2cc(=O)c3ccccc3[nH]2)s1	101	.	89	86
O=C1C(c2ccccc2)C(c2ccco2)NC(c2ccco2)C1c1ccccc1 (stereo unspecified)	97	-12	97	91
CCOC(=O)c1c(-c2ccccc2)oc2ccc(OCC)cc12	.	1	48*	86*
CCN(N)c1nc(Cl)cc(C)c1C#N	.	-1	108	81
O=C(C1CC1)n1nccc1-c1csc(-c2ccccc2)n1	106	6	113	100
O=C(NCCc1cccs1)C1CCN(Cc2cnn(-c3ccccc3)c2-n2cccc2)CC1	107	-9	108	82
COCCNC(=O)CCc1nc2sc3c(c2c(=O)[nH]1)CCC(C(C)(C)C)C3 (stereo unspecified)	99	-16	.	.
Cc1cc(C)c2c(-n3cccc3)c(C(=O)N3CCc4ccccc4C3)sc2n1	101	1	.	.

New compounds follow:
SMILES	GIV Gai3 FP	HCMV NEC inh	Sa growth 42C	Sa growth 42C second temp
Cc1cc(O)c(C(c2ccncc2)N2CCCCC2)c(=O)n1Cc1ccco1 (stereo unspecified)	109	-45	89	86
Cc1oc(-c2ccccc2)nc1CNC(=O)NC1CCCCC1	104	.	90	97
COc1ccc(CNC(=O)c2cnc(N3CCCC3)nc2C)cc1	104	.	98	89
Cc1cccc(NC(=O)C2CCCN(S(=O)(=O)c3ccc4c(c3)oc(=O)n4C)C2)c1C (stereo unspecified)	106	-35	107	89
CCCCOCC1CC(CC#CCN2CCCCC2)C(=O)O1 (stereo unspecified)	99	-13	92	90
Cc1nn(-c2ccccc2)cc1-c1noc(C(=O)NC2CCCCC2)n1	101	-30	.	.
Cc1ccc(-c2cc(C(=O)N3CCN(c4cccc(C)c4C)CC3)[nH]n2)cc1	97	0	.	.
COc1ccc(S(=O)(=O)N2CCC(N3CCN(Cc4ccc(F)cc4)C(=O)C3=O)CC2)cc1	100	.	138	88
CCOC(=O)/C=C(/C)Nc1nonc1NC(C)=O	.	-15	104	82
COc1ccc(CNC(=O)CN2C(=O)COc3ccc(S(=O)(=O)N4CCCCC4)cc32)cc1	108	.	117	94
CCN(CC)S(=O)(=O)c1ccc2c(c1)N(CC(=O)NCCc1ccccc1)C(=O)CO2	105	-21	102	92
Fc1ccccc1OCc1n[nH]c(=S)n1-c1ccccc1	.	-12	80	90
CC(=O)Nc1ccc(C(=O)N(C)Cc2cccc(F)c2)cc1	.	4	91	94
Oc1ccc(-c2csnn2)cc1	96	-20	.	.
O=C1C2C3C=CC(C3)C2C(=O)N1CCc1ccccc1 (stereo unspecified)	99	-13	87	87
COc1ccc(C(=O)Nc2ccc(N3CCN(C(=O)OC(C)(C)C)CC3)nc2)cc1	110	-7	100	90
Cc1ccc(CN2C(=O)C3CCCCC3C2=O)cc1S(=O)(=O)NC(C)C (stereo unspecified)	100	0	.	.
CCc1ccc(NC(=O)c2ccc(CN3CCN(Cc4ccccc4)C3=O)cc2)cc1	103	-14	.	.
Cc1cccc(C(=O)N2CCc3cc(CNC(=O)c4ccnn4C)ccc32)c1	102	.	94	69
CCOC(=O)c1sc2sc(C(=O)OCC)c(CN(CC)CC)c2c1CN(CC)CC	98	7	103	88
CC/C(=N\NC(=O)C1CC1)c1cccc(Cl)c1	.	6	86	92
COCc1nnc(NC(=O)COc2cccc(-c3nc(-c4ccccc4)no3)c2)s1	108	-16	.	.
CCOC(=O)C1CCN(C(=O)c2ccc3c(c2)sc2nc(-c4ccc(C)cc4)cn23)CC1	116	.	102	96
COc1ccccc1/C=C(\C#N)C(=O)NCC1CCCO1 (stereo unspecified)	107	5	103	104
COc1ccc(C2Nc3ccccc3C(=O)N2c2ccc(Cl)cc2)cc1Cn1nnc2ccccc21 (stereo unspecified)	102	-19	.	.
CN(CC(=O)Nc1ccc(Cl)cc1F)S(=O)(=O)c1ccc2c(c1)n(C)c(=O)c(=O)n2C	103	1	85	97
OCc1cnc(SCc2ccccc2)n1Cc1ccccc1	100	-13	103	88
COCCn1c(=O)[nH]c2cc(C(=O)O)ccc2c1=O	105	0	125	90
Cc1ccc(-c2cc3ncc4c(n3n2)-c2cc(F)ccc2OC4)cc1	106&94	2&14	99	103
CC(C)(C)NS(=O)(=O)CC12CCC(CC1=O)C2(C)C (stereo unspecified)	.	-19	73	82
CCN(CC(=O)NCc1cccs1)Cc1cc(=O)oc2cc(O)ccc12	.	-61	92	73
CCCc1cc(SCC(=O)O)n2c(nc3ccccc32)c1C#N	107	-33	65	21
N#Cc1cn(-c2ccc(Cl)cc2)nc1C(=O)c1cccs1	103	45	105	95
N#Cc1nc(/C=C/c2ccc(F)cc2)oc1N1CCCCCC1	106	-36	118	86
Cc1csc(-n2[nH]c(C)c(CC(=O)Nc3ccccc3F)c2=O)n1	97	-8	.	.

Screening data: PubChem, ICCB-Longwood Screening Facility, Harvard Medical School
